VACV mCherry inh = qHTS for Stage-Specific Inhibitors of Vaccinia Orthopoxvirus: mCherry Reporter Primary qHTS; Vaccinia virus mCherry reporter infection, fluorescence; about a quarter of the inactives have no number; Potency, µM (doses to about 36.5 µM), for inactives: at the top dose activity change, negative = inhibition, most hits filed as inhibitors; hit rate 0.63% among 310,000; active = well fitted inhibition curve with a large enough effect; inconclusive = small, poorly fitted or top-dose-only effect; inactive = no such curve, though single readings can be large or run the other way; tested in A549 cells; further: nearly all actives have a fitted effect of over 35% in size; inactives centre near -10
VACV Venus inh = qHTS for Stage-Specific Inhibitors of Vaccinia Orthopoxvirus: Venus Reporter Primary qHTS; Vaccinia virus Venus reporter expression, fluorescence; Potency, µM (series often up to 36.5 µM), inactives show at the top dose activity change, negative = inhibition, usual class: inhibitors; hit rate 0.46% among 330,000; AID 720580, 2013; active means well fitted inhibition curve with a large enough effect; inconclusive means small, poorly fitted or top-dose-only effect; inactive means no such curve, though single readings can be large or run the other way; tested in A549 cells; further: nearly all actives have a fitted effect of over 30% in size; inactives centre near -10
An asterisk follows results filed as active; i = inactive; u = inconclusive; x = no result given; & = joins results of further samples; [ ] = dose if it differs, or a comment. On the % scale 0 is the no-effect control and ±100 the full control effect; potency means the concentration at half of the fitted maximal effect.

SMILES	VACV mCherry inh	VACV Venus inh
COc1ccc(S(=O)(=O)Nc2ccc(N3CCOCC3)cc2)cc1Br	i	-24.6%
CC(=O)NC(CC(=O)OCC(=O)c1c(N)n(CC(C)C)c(=O)n(C)c1=O)c1ccccc1 (stereo not drawn)	-1.3%	-15.1%
O=C(CCC(=O)c1ccc(Cl)cc1)OCn1nnc2ccccc2c1=O	-12.2%	-4.3%
O=S(=O)(NCc1ccco1)N1CCCCCC1	-12.6%	-0.5%
CN1C(=O)C2(OCC(COc3ccc(Cl)cc3)O2)c2ccccc21 (stereo not drawn)	i	-18.3%
O=C1COc2ccc(C(=O)COC(=O)CNC(=O)C3CCCCC3)cc2N1	-7.1%	-2.4%
Cc1cccc(N2CCN(CCNC(=O)c3cc4c(s3)CS(=O)(=O)C4)CC2)c1C	-13.0%	-26.9%
O=C(COC(=O)c1ccco1)NC1CCCC1	1.5%	-14.4%
CCc1ccccc1NC(=O)CSc1nc2c(oc3ccccc32)c(=O)n1-c1ccccc1	-5.5%	-4.9%
Cc1[nH]c2ccccc2c1C(c1ccccn1)N1CCCC1 (stereo not drawn)	-8.6%	-8.2%
O=C(O)c1ccc[nH]c1=S	-6.3%	0.8%
CC1Cc2cc(S(=O)(=O)CCC(=O)Nc3ccc(OC(F)(F)F)cc3)ccc2N1C(=O)C1CC1 (stereo not drawn)	-22.1%	-27.0%
CCn1nc(C)cc1C(=O)NC1CC(C)(C)Cc2c1cnn2-c1cccc(F)c1 (stereo not drawn)	-23.2%	-12.0%
O=C(Nc1nncs1)c1cccc(S(=O)(=O)N2CCc3ccccc32)c1	-8.5%	-14.8%
CCN(CC)C(=O)c1ccc2nc([C@H]3C[C@H](O)[C@@H](CO)O3)[nH]c2c1	11.6%	-10.9%
CS/C(=N\S(=O)(=O)c1cccs1)NC(=O)CSc1nc2ccccc2s1	-6.1%	1.3%&-9.4%
Cc1cccc(C(=O)OCc2cc(=O)n3ccsc3n2)c1	-10.2%	-12.1%
Cc1ccc(S(=O)(=O)N(C)C)cc1NC(=O)COC(=O)/C=C/c1cccs1	-13.7%	-8.5%
O=c1c(O)c(-c2ccc(O)c(O)c2)oc2cc(O)ccc12	u	-10.5%&0.0%
COc1ccccc1CN(Cc1nc2ccccc2c(=O)[nH]1)C(=O)Nc1ccc(C)cc1	i	-9.6%

Continued, starting with the last 2 of the part before.
SMILES	VACV mCherry inh	VACV Venus inh
O=c1c(O)c(-c2ccc(O)c(O)c2)oc2cc(O)ccc12	u	-10.5%&0.0%
COc1ccccc1CN(Cc1nc2ccccc2c(=O)[nH]1)C(=O)Nc1ccc(C)cc1	i	-9.6%
Cc1cc(C)cc(NC(=O)COC(=O)COc2ccc(N(C)S(=O)(=O)c3cccs3)cc2)c1	i	-6.4%
Cc1c(NC(=O)c2c(F)cccc2F)c(=O)n(-c2ccccc2)n1C	x	10.5%
COc1cc2c(cc1OC)-c1c(OC)c(OC)c(OC)c3ccnc(c13)C2=O	u	u
Cc1ccc(N(CC(=O)N2CCN(c3ccc(Cl)cc3)CC2)S(=O)(=O)c2c(C)nn(C)c2C)cc1	-4.6%	u
O=C(c1cc2sccc2n1Cc1ccccc1)N1CCCc2ccccc21	-9.6%	-8.1%
COc1ccccc1N1CCN(c2ccc(-c3ccccc3)nn2)CC1	u	-26.0%
Cc1cc(C)cc(N)c1	i	-11.8%
COc1ccc(C2N(C(=O)C(F)(F)F)C(C)CN2S(=O)(=O)c2ccc(C)cc2)cc1 (stereo not drawn)	-3.5%	-2.7%
CCCCCCCC(=O)Nc1ccc(C(=O)N/N=C/c2cccc([N+](=O)[O-])c2)cc1	-13.6%	-3.1%
CC(C)(C)OC(=O)NCCc1onc(-c2cccc([N+](=O)[O-])c2)c1C(=O)O	-3.3%	-2.6%
CCN(CC)C(=O)c1sc2c(c1C)c(=O)n(-c1ccc(Cl)c(Cl)c1)c(=O)n2Cc1cc(=O)n2c(C)cccc2n1	-12.6%	-2.3%
CCc1nc2ccc(C(=O)NCCCN3CCCC3=O)cn2c1N(C)C(=O)C1CCCCC1	i	-7.7%
COc1ccc(N(CC(=O)N2CCOCC2)S(C)(=O)=O)cc1	i	-10.5%
CCOc1ccccc1-n1c(SCC(=O)Nc2ccc(CC)cc2)nc2n[nH]c(C)c2c1=N	x	-19.3%
CCc1nc(OCC(=O)c2ccccc2)c(C#N)c2c1COC(C)(C)C2	-3.8%	-18.9%
CCOC(=O)N1CCC(Nc2c(NCCN3CCN(c4cccc(Cl)c4)CC3)c(=O)c2=O)CC1	-23.3%	8.2%
C=C(C)COc1ccc(-c2n[nH]c(C)c2-c2ccccc2OC)c(O)c1	x	u
COc1ccc(C(=O)OCC(=O)c2cc(OC)ccc2OC)c(OC)c1	x	u
CCOC(=O)c1c(C)nc2c(c1-c1ccccc1)C(=O)CC(C)(C)C2	x	-7.2%
CC(Sc1nc2ccccc2c(=O)n1CC1CCCO1)C(=O)N(C)Cc1ccccc1 (stereo not drawn)	i	-14.6%

Entries of single compounds as entered above:
Cc1ccc(S(=O)(=O)N(C)C)cc1NC(=O)COC(=O)/C=C/c1cccs1 is entered as VACV mCherry inh = -13.7%; VACV Venus inh = -8.5%
CCOC(=O)c1c(C)nc2c(c1-c1ccccc1)C(=O)CC(C)(C)C2 is entered as VACV mCherry inh = x; VACV Venus inh = -7.2%
O=c1c(O)c(-c2ccc(O)c(O)c2)oc2cc(O)ccc12 is entered as VACV mCherry inh = u; VACV Venus inh = -10.5%&0.0%

(further entries)
SMILES	VACV mCherry inh	VACV Venus inh
CCC(C)C(NC(=O)OC(C)(C)C)C(=O)NC(C(=O)N1CCCC1C(N)=O)C(C)CC (stereo not drawn)	x	-16.1%
O=S(=O)(NCc1nc2cccnc2n1Cc1ccccc1)c1ccc2c(c1)CCCC2	-16.6%	-3.5%
CCOC(=O)c1cnc(SCC(=O)Nc2cc(C(F)(F)F)ccc2N2CCOCC2)nc1N	x	-19.4%
Cc1ccc(NC(=O)CSc2nnc3[nH]c(=O)cc(-c4ccccc4)n23)cc1Cl	i	-17.2%
COc1ccccc1NS(=O)(=O)c1cccc(C(=O)N/N=C/c2ccc(N3CCOCC3)cc2)c1	-18.5%	-8.5%
COC(=O)c1ccc(Cl)c(NC(=O)CN2CCN(Cc3ccccc3)CC2)c1	x	-7.1%
COc1ccc2oc(C(=O)OCC(=O)N3CCN(c4ccccc4)CC3)c(C)c2c1	-7.1%	-5.6%
CC(=O)C(Cc1ccccc1)NC(=O)COC(=O)c1cccc(C)c1[N+](=O)[O-] (stereo not drawn)	-14.6%	-10.4%
Cc1cc(C)c2sc(NC(=O)c3ccc([N+](=O)[O-])o3)nc2c1	u	11.2µM*
Cc1c(NC(=S)NC(=O)C2CCCCC2)c(=O)n(-c2ccccc2)n1C	-13.8%	-2.0%
CCCNC(=O)C1(C)CCCN(C(=O)c2ccc3sccc3c2)C1 (stereo not drawn)	25.4%	4.6%
CCN(CC(=O)Nc1ccc(Br)cc1)C(=O)Cc1cccc(F)c1	i	0.0%
CC(C)CN(C(=O)c1ccco1)c1nc2ccccc2s1	-16.9%	-6.2%
Cc1cc(NC(=O)C2(c3ccccc3)CCCC2)no1	i	-18.6%
CCCCOC(=O)C1=C(C)Nc2ncnn2C1c1ccc(OCC)c(OC)c1 (stereo not drawn)	-10.4%	0.6%
O=C(CSc1ncccn1)N1CCN(C(=O)CSc2ncccn2)CC1	i	-2.8%
Cc1cc(-c2nnc(CCC(=O)NC(C)c3ccccc3Cl)o2)no1 (stereo not drawn)	-10.9%	-3.9%
COc1ccccc1C(=O)N/C(=C\c1ccc(Br)cc1)C(=O)NCC(=O)O	i	-13.0%
Cc1cc(C)cc(N(CCC#N)C(=O)CSc2ncnc3sccc23)c1	-4.9%	-28.9%
CCN(C(=O)c1nn(-c2ccc(OC)c(Cl)c2)c(=O)c2c1c1ccccc1n2C)c1cc(OC)ccc1OC	-19.4%	-11.9%
Cc1nn(C)cc1C(=O)/C=C/c1ccc([N+](=O)[O-])cc1	-29.1%	-22.1%
COc1ccccc1CNC(=O)CCN1C(=O)COc2ccccc21	-9.0%	0.0%
CN1CCN(C(=O)c2ccc3c(=O)n(Cc4ccc(Cl)cc4)c(=S)[nH]c3c2)CC1	-26.2%	-23.2%
O=C(CCC1CCN(C(=O)C2CC=CCC2)CC1)Nc1ccccc1 (stereo not drawn)	i	-12.9%
O=C(NNC(=O)c1cccc(C(F)(F)F)c1)c1ccncc1	-18.4%	-15.6%
N#CC1=C(N)Oc2n[nH]c(CSc3ccccc3)c2C12C(=O)Nc1ccccc12 (stereo not drawn)	i	-5.5%
COc1ccc(-c2ccc3c(c2)S(=O)(=O)c2cccc(C(=O)NC4CCCCC4)c2C3=O)cc1OC	-12.6%	-10.8%
NC(=O)c1c(NC(=O)c2ccccc2C(=O)O)sc2c1CCCC2	-1.5%	-4.9%
Cc1cc(C(=O)OC(C)C(=O)Nc2ccccc2)c(C)n1C1CC1 (stereo not drawn)	-13.5%	-4.9%
Cc1ccc(/C(O)=C2\C(=O)C(=O)N(C)C2c2cccc([N+](=O)[O-])c2)cc1 (stereo not drawn)	-25.5%	-8.6%
[O-]/[N+](=C\c1cccc(Br)c1)c1ccccc1	u	8.9%
CC(C)(C)CC(C)(C)N=C1Nc2cc(Cl)c(Cl)cc2N[C@]12C[C@H]1CCCC(=O)N3CC[C@@H](C2)[C@@H]13	i	-12.8%
CN1CCN(c2ccccc2NC(=O)COc2ccc(C3CCCCC3)cc2)CC1	-4.7%	1.8%
CN(c1ccc(C(=O)NC2CCCC2)cc1)S(=O)(=O)c1ccccc1	2.1%	4.1%
COc1ccc(C2=CCCCCC2)c(OC)c1OC	i	-2.9%
COc1cccc(C(C)(O)c2nc(-c3cccc(C(=O)O)c3)cs2)c1 (stereo not drawn)	-12.4%	3.1%
CCCCCC1CC(=O)N(Cc2ccccc2)C(=O)N1 (stereo not drawn)	i	-16.4%
CCCC12CN3CC(C)(CN(C1)C3c1ccco1)C2=O (stereo not drawn)	-1.9%	3.3%
Cc1ccc(-n2ncc3c(NCCCN(C)C)ncnc32)cc1Cl	-17.7%	-18.5%
CCOC(=O)c1sc(NC(=O)Cc2ccc(F)cc2)nc1C	i	-4.4%
Cc1cccc(C)c1NC(=O)Cn1c(=O)n(CCC(=O)NCc2ccccc2Cl)c(=O)c2sccc21	4.6%	18.8%
CCc1nc2nc(C)cc(Nc3ccc(Br)cc3F)n2n1	u	-20.8%
Cc1ccccc1OCCn1c(CCNC(=O)C(C)(C)C)nc2ccccc21	-11.8%	-4.7%
CCOC(=O)c1cnc2ccc(Cl)cc2c1NCCN(C)C	x	11.1%
CCCCCOc1ccccc1Cn1c(=O)oc2ccc(C)cc21	0.6%	0.1%
O=C(Cc1cccs1)N[C@@H]1C(=O)N2C(C(=O)[O-])=C(C[n+]3ccccc3)CS[C@H]12	-13.4%	-7.4%
CCOC(=O)c1c(C)[nH]c(C(=O)C(C)OC(=O)c2cnc(C)cn2)c1C (stereo not drawn)	i	-17.7%
Cc1[nH]c(C)c(S(=O)(=O)N2CCN(c3cccc(Cl)c3)CC2)c1C(=O)N1CCCC1	i[7.34 µM]	0.0%[7.34 µM]
Cc1ccc(S(=O)(=O)c2nnn3c2nc(NC(C)C)c2cc(Cl)ccc23)cc1C	-14.2%	-13.2%
Cc1cc(-c2ccccc2)n(-c2ccc(C(N)=O)cc2)n1	i	-12.4%
O=C(COC(=O)CNC(=O)C1CCCCC1)Nc1ccc2ccccc2c1	-14.2%	-8.3%
Clc1ccc(-c2nnc3n2CCCCC3)cc1	4.9%	7.6%
CCOc1ccccc1NC(=O)C(Cc1ccccc1)NS(=O)(=O)c1ccc(Br)s1 (stereo not drawn)	-15.7%	-11.1%
O=C(/C=C/c1ccccc1)N1CCN(Cc2cc(=O)n3nc(-c4ccccc4Cl)sc3n2)CC1	u	-29.1%
O=c1c2ccccc2cnn1Cc1n[nH]c(=S)n1-c1ccc(F)c(Cl)c1	i	-1.6%
Cc1cc(C(=O)N/N=C/c2c3ccccc3cc3ccccc23)n[nH]1	u	-27.6%
CCCNC(=O)C1(C)CCCN(C(=O)C2(c3ccc(Cl)cc3)CCCC2)C1 (stereo not drawn)	12.2%	-17.3%
Cc1ccc(-c2cc(C(=O)N3CCN(S(=O)(=O)c4ccc(Br)s4)CC3)[nH]n2)c(C)c1	-4.4%	u
COc1ccc(N(C(=O)CNC(=O)c2ccco2)C(C(=O)NCC2CCCO2)c2ccccc2)cc1Cl (stereo not drawn)	-9.6%	-6.6%
CS(=O)(=O)N1CCc2cc(C(=O)Nc3cccc(F)c3)ccc21	2.9%	-7.1%
(further entries)
SMILES	VACV mCherry inh	VACV Venus inh
CCCCc1c(O)nc(SCC(=O)O)[nH]c1=O	i	5.4%
Cc1ccc(C(=O)Nc2nccc(C)n2)cc1	-0.7%	-11.4%
Cc1ccc(N2CC(C(=O)Nc3nnc(SCC(=O)Nc4cc(C)on4)s3)CC2=O)cc1 (stereo not drawn)	i	-4.2%
COc1cccc(C(=O)Nc2ccc(C(=O)c3ccncc3)cc2)c1	20.6%	-4.9%
O=[N+]([O-])c1ccc(C(O)CSC(=S)N2CCCCC2)cc1 (stereo not drawn)	i	-10.5%
COc1cccc(CN2CCC3(CC2)c2ccccc2[C@@H](NC(=O)c2ccccc2)[C@@H]3O)c1O	-24.2%	-8.5%
O=C(c1ccccc1NS(=O)(=O)c1cccc([N+](=O)[O-])c1)N1CCOCC1	-6.7%	-9.0%

Source: PubChem (National Center for Advancing Translational Sciences (NCATS))
